Cruzain inh noDet = cruzain (T. cruzi) inhibition without detergent. P25779. Potency, µM, for the others: max response, negative = inhibition, actives largely listed as inhibitors. 2.3% of 200,000 active. AID 1476. purified cruzain, Z-FR-AMC fluorescence, no detergent;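 further: plate controls were enzyme without inhibitor for no effect and buffer without enzyme for full effect; nearly all actives have a fitted effect of over 40% in size; top concentration of the series not given in the record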
Target sequence (P25779 123-467 limits assumed): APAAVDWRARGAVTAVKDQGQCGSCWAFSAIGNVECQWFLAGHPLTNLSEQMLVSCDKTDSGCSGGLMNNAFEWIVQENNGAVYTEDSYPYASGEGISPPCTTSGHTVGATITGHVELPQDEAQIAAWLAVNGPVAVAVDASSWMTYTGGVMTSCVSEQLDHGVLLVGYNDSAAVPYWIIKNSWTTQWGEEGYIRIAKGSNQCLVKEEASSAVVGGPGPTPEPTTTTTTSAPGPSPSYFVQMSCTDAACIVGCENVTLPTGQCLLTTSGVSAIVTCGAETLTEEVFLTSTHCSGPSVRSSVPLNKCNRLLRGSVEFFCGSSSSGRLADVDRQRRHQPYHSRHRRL
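Detergent-free condition (0.00005% Triton X-100) in acetate buffer pH 5.5 with DTT. 1.5 nM enzyme and compound were pre-mixed 15 min, then 2 uM Z-FR-AMC substrate added; reaction progress from fluorescence change between first and third reads (60 s).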
Cruzain inh Det = inhibitors of Trypanosoma cruzi cruzain with detergent | Potency, µM, inactives show max response, negative = inhibition, actives largely listed as inhibitors | purified cruzain, Z-FR-AMC fluorescence, 0.01% Triton | P25779 | 0.43% of 200,000 active;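 further: plate controls were neutral wells for no effect and buffer without enzyme for full effect; nearly all actives have a fitted effect of over 40% in size; top concentration of the series not given in the record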
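15 min RT preincubation of 1.5 nM cruzain with compound, then 2 uM Z-FR-AMC added; kinetic AMC fluorescence, 60 s delta. Triton X-100 0.01%, pH 5.5.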
2A StopGo = lowers the luciferase signal of an FMDV 2A StopGo reporter; human cells with a luciferase reporter of 2A StopGo recoding; control for the full effect not named in the record; Potency, µM (series often up to 57.9 µM), for inactives: at the top dose signal change, negative = less light; 1.2% of 410,000 active; active = well fitted falling curve with a large enough effect; inconclusive = small, poorly fitted or top-dose-only effect; inactive = no such curve, though single readings can be large or run the other way; tested in HEK293T cells; further: on the % scale 0 is the no-effect control and ±100 the full control effect; nearly all actives have a fitted effect of over 45% in size; luciferase light after 4 h
MARV entry inh = blocks Marburg virus binding to or entry into cells; Marburg virus pseudotyped entry inhibition, cell reporter; control for the full effect not named in the record; about a third of the inactives were read at about 46 µM; Potency, µM (highest dose often 37.8 µM), inactives show at the highest dose activity change, negative = inhibition, usual class: inhibitors; 1.8% of 300,000 active; AID 540276; active = well fitted inhibition curve with a large enough effect; inconclusive = small, poorly fitted or top-dose-only effect, or effect the other way; inactive = flat fitted curve, though single readings scatter; tested in HEK293 cells; about a fifth of its hits are not listed in these tables; further: on the % scale 0 is the no-effect control and ±100 the full control effect; luciferase read-out
SARS PLpro yeast = SARS-CoV PLP inhibition in yeast | S. cerevisiae expressing SARS-CoV PLpro, growth rescue; control for the full effect not named in the record | Potency, µM (titrated, usually from 32.9 µM), inactives show at the highest dose activity, positive = growth rescue | 0.19% of 330,000 active; active means well fitted rising curve with a large enough effect; inconclusive means small, poorly fitted or top-dose-only effect; inactive means no such curve, though single readings can be large or run the other way; further: 0% is about no effect; nearly all actives have a fitted effect of over 55% in size; growth read by luminescence after 48 h
NS1 inh = inhibitors of influenza NS1 protein function | S. cerevisiae slowed by influenza A NS1, growth recovery by OD600 | Potency, µM (doses to about 46.1 µM), for the others: at the top dose activity, positive = more growth | 0.4% of 270,000 active | AID 2326; active means well fitted rising curve with a large enough effect; inconclusive means small, poorly fitted or top-dose-only effect; inactive means no such curve, though single readings can be large or run the other way; further: nearly all actives have a fitted effect of over 50% in size
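Recovery from NS1-induced slow growth read by OD600 in budding yeast switched to galactose assay medium (pH 6.0, -URA) at 1:100 dilution. Compound 23 nl per well; the matching strain lacking NS1 serves as control.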
RE007 growth inh = less growth of the S. pombe RE007 Vpr strain; S. pombe RE007 Vpr strain, BacTiter-Glo ATP luminescence, 24 h; control for the full effect not named in the record; Potency, µM (doses to about 92.2 µM), for inactives: top-dose activity change, negative = less growth; 0.21% of 360,000 active; active = well fitted falling curve with a large enough effect; inconclusive = small, poorly fitted or top-dose-only effect; inactive = no such curve, though single readings can be large or run the other way;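 further: on the % scale 0 is the no-effect control and ±100 the full control effect; nearly all actives have a fitted effect of over 50% in size; the assay follows cell death caused by Vpr and the record does not say whether a fall means rescue or toxicity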
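Fission yeast strain RE007, carrying one chromosomally integrated HIV-1 vpr copy, was seeded at OD 0.01 in PMG+AL medium with 23 nL pinned compound. After 24 h at 30 °C and 99% humidity, viability was read by BacTiter-Glo luminescence.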
Lassa entry inh = inhibitors of Lassa virus binding or cell entry | Potency, µM (titrated, usually from 37.9 µM), for the others: top-dose activity change, negative = inhibition, most hits filed as inhibitors | AID 540256 | Lassa virus pseudotype entry inhibition, cell reporter; control for the full effect not named in the record | 1.2% of 300,000 active; active means well fitted inhibition curve with a large enough effect; inconclusive means small, poorly fitted or top-dose-only effect, or effect the other way; inactive means flat fitted curve, though single readings scatter; tested in HEK293 cells; further: on the % scale 0 is the no-effect control and ±100 the full control effect; nearly all actives have a fitted effect of over 50% in size; luciferase read-out
The depositor's hits bear a star; ? = inconclusive; nt = not tested or not shown; & = joins results of further samples; [ ] = remark or other dose. Unless noted, the call rests on the fitted dose curve; in most records, active means well fitted curve in the direction sought with a large enough effect; inconclusive means small, poorly fitted or top-dose-only effect, or another doubt; inactive means no such curve, though single readings can be large; an effect the other way counts as inactive or inconclusive. Potency means the concentration at half of the fitted maximal effect.

SMILES	Cruzain inh noDet	Cruzain inh Det	2A StopGo	MARV entry inh	SARS PLpro yeast	NS1 inh	RE007 growth inh	Lassa entry inh
O=C(O)c1ccc(/C=N/NC(=O)c2cc(-c3cccs3)nc3ccccc23)cc1	13%	-10%	21%	0%	13%	27%	-1%	0%
NC(=O)CCn1c(C(=O)c2cc(Cl)c(N)c(Cl)c2)c2ccccc2[n+]1[O-]	nt	nt	0%	nt	-1%	-4%	7%	nt
CCOC(=O)c1c(-c2ccc(C)o2)csc1NC(=S)NC(=O)N(C)C	?	-12%	-18%	?	0%	-2%	-17%	0%
Cc1ccc(N=C(N)N=C(N)N)cc1	nt	nt	-2%	nt	2%	-1%	7%	nt
CN(Cc1ccccc1)C(=O)COC(=O)COc1ccc(Cl)cc1	nt	nt	-4%	0%	2%	nt	6%	2%[46.1 µM]
CC(=O)Nc1ccc(S(=O)(=O)NCc2nc(-c3cccc(C)c3)no2)cc1	nt	nt	-12%	-9%[46.1 µM]	0%	-2%	2%	-27%
CCNc1nc(CN2CCOCC2)nc2sc3c(c12)CCC3	-13%	-3.9%	-24%	?	5%	6%	-5%	-8%
CCOC(=O)Cn1c(=O)oc2cc(S(=O)(=O)NCc3cccs3)ccc21	0%	-0.3%	9%	nt	0%	4%	-7%	nt
CC(C)CCNC(=O)c1cn(CC(C)C)c(=O)c2c1c1ccccc1n2C	nt	nt	8%	nt	11%	0%	-3%	nt
CCCCNC(=O)C1CCC(CNc2nc(=S)[nH]c3ccccc23)CC1 (stereo not given)	nt	nt	-9%	-23%	1%	nt	-2%	-19%
CCCOc1ccc(N2C(=O)CC(NCc3ccncc3)C2=O)cc1 (stereo not given)	9%	2.9%	-25%	?	-7%	-1%	-24%	1%
COc1ccc(/C(N)=N/OC(=O)c2ccco2)cc1OC	nt	nt	43%[activator]	?	-1%	nt	-4%	17%
FC(F)(F)c1cccc(Nc2c3c(nc4ccc(Cl)cc24)CCC3)c1	-2%	-14%	-8%	?	nt	nt	nt	?
COc1ccc(C2/C=C\CN(C(=O)Nc3ccc(C(F)(F)F)cc3)CC(=O)N2Cc2ccc(F)cc2)cc1 (stereo not given)	nt	nt	-14%	nt	-18%	-128%	-2%	nt
COc1ccc(NC(=O)CSc2nccn2-c2ccccc2)cc1	-5%	1.9%	-2%	26%[46.1 µM]	-7%	-173%	-11%	-1%
COC(=O)c1c(C)[nH]c(C(=O)OC(C)C(=O)N(C)C2CCCCC2)c1C (stereo not given)	nt	nt	-4%	0%	-7%	nt	-6%	?
COc1ccc(NC(=S)N2CCC(NC(=O)c3cccc(C)c3)CC2)cc1	nt	nt	2%	?	-1%	-3%	-10%	?
COc1cc(NC(=O)c2cc(S(=O)(=O)N3CCCCC3)c[nH]2)cc(OC)c1	nt	nt	-20%	nt	1%	-17%	-2%	nt
O=C(NCc1ccccn1)c1ccccc1OCc1ccc(F)cc1	nt	nt	-24%	-22%	0%	nt	8%	-4%[46.1 µM]
COc1ccc(-c2nc(CN3CCCCC3c3nccn3C)c(C)o2)c(C)c1C (stereo not given)	nt	nt	-26%	?	-1%	1%	-4%	-2%[46.1 µM]

A section from the list above, for reference:
SMILES	Cruzain inh noDet	Cruzain inh Det	2A StopGo	MARV entry inh	SARS PLpro yeast	NS1 inh	RE007 growth inh	Lassa entry inh
CCCOc1ccc(N2C(=O)CC(NCc3ccncc3)C2=O)cc1 (stereo not given)	9%	2.9%	-25%	?	-7%	-1%	-24%	1%
COc1ccc(/C(N)=N/OC(=O)c2ccco2)cc1OC	nt	nt	43%[activator]	?	-1%	nt	-4%	17%
FC(F)(F)c1cccc(Nc2c3c(nc4ccc(Cl)cc24)CCC3)c1	-2%	-14%	-8%	?	nt	nt	nt	?
COc1ccc(C2/C=C\CN(C(=O)Nc3ccc(C(F)(F)F)cc3)CC(=O)N2Cc2ccc(F)cc2)cc1 (stereo not given)	nt	nt	-14%	nt	-18%	-128%	-2%	nt
COc1ccc(NC(=O)CSc2nccn2-c2ccccc2)cc1	-5%	1.9%	-2%	26%[46.1 µM]	-7%	-173%	-11%	-1%
COC(=O)c1c(C)[nH]c(C(=O)OC(C)C(=O)N(C)C2CCCCC2)c1C (stereo not given)	nt	nt	-4%	0%	-7%	nt	-6%	?
COc1ccc(NC(=S)N2CCC(NC(=O)c3cccc(C)c3)CC2)cc1	nt	nt	2%	?	-1%	-3%	-10%	?
COc1cc(NC(=O)c2cc(S(=O)(=O)N3CCCCC3)c[nH]2)cc(OC)c1	nt	nt	-20%	nt	1%	-17%	-2%	nt
O=C(NCc1ccccn1)c1ccccc1OCc1ccc(F)cc1	nt	nt	-24%	-22%	0%	nt	8%	-4%[46.1 µM]
COc1ccc(-c2nc(CN3CCCCC3c3nccn3C)c(C)o2)c(C)c1C (stereo not given)	nt	nt	-26%	?	-1%	1%	-4%	-2%[46.1 µM]

(next part)
SMILES	Cruzain inh noDet	Cruzain inh Det	2A StopGo	MARV entry inh	SARS PLpro yeast	NS1 inh	RE007 growth inh	Lassa entry inh
Cn1ccnc1SCCNC(=O)CCc1nnc(CCCCc2ccccc2)o1	nt	nt	-9%	-1%[46.1 µM]	-1%	-5%	-3%	19%[46.1 µM]
Cc1sc2ncnc(NCC(O)c3ccccc3)c2c1C (stereo not given)	nt	nt	-27%	?	-2%	-3%	-13%	?
CC(=O)CCc1ccc(OCCCOc2cccc3cccnc23)cc1	nt	nt	-1%	nt	-3%	-59%	-2%	nt
O=C(NCCCn1ccnc1)c1ccc(S(=O)(=O)N2CCOCC2)cc1	nt	nt	-7%	-26%	6%	nt	3%	-12%
Cc1c(CNCCc2ccccc2Cl)c(C(=O)O)c(C)n1-c1ccccc1	nt	nt	?	nt	0%	1%	-10%	nt
CC(C)(C)c1ccc(C(=O)C2CCCN(C3CCC3)C2)cc1 (stereo not given)	nt	nt	-22%	?	0%	-4%	-12%	?
Cc1cccc(C(=O)N2CCCC(c3nc(-c4ccc(C)o4)no3)C2)c1 (stereo not given)	nt	nt	21%	?	6%	-5%	-1%	25%[46.1 µM]
Cn1ncc2c(Nc3cccc(Cl)c3)nc(Nc3cccc(Cl)c3)nc21	20%	4.3%	41%[activator]	?	2%	-58%&-74%	?	-25%[46.1 µM]
CC(CCc1ccccc1)NC(=O)c1cccs1 (stereo not given)	2%	-0.1%	nt	8%	-8%	-23%	15%	-5%
COc1ccc2c(CC(=O)N3CCN(S(=O)(=O)c4cccs4)CC3)coc2c1	-13%	-1.3%	-15%	2%	-4%	?	-7%	11%
CC1CCN(CCCNC(=O)CN2C(=O)CSc3ccc(S(=O)(=O)N4CCOCC4)cc32)CC1	?	0.8%	-3%&-15%	nt	-4%	-1%	13%	?
S=C(NCCCN1CCOCC1)N1CCN(c2ccccc2)CC1	nt	nt	-11%	7%	1%	-4%	6%	5%
O=C(NCc1ccccc1)c1cccc(OCC(=O)N2CCN(C(=O)c3ccco3)CC2)c1	2%	1.2%	-22%	-5%	6%	?	-3%	-13%
Cc1cccc2cc(CN(C(=O)c3cccc([N+](=O)[O-])c3)C(C)C)c(=O)[nH]c12	nt	nt	-20%	-10%[46.1 µM]	1%	3%	-19%	21%
C=CCn1c(CNC(=O)c2ccco2)nnc1SCC(=O)N1c2ccccc2Sc2ccccc21	?	-1.2%	15%	3%	5%	1%	18%	-10%
N#CCOC(=O)/C=C/c1ccc2c(c1)OCO2	nt	nt	22%	?	3%	-2%	33%	-24%
O=C1CC(/C=C/c2cccnc2)=Nc2ccccc2N1	nt	nt	-3%	?	3%	-3%	-16%	?
Cc1cc(C)c(NC(=O)/C=C\C(=O)O)c(Cl)c1	10%	0.5%	-8%	-1%	-72%	-20%	6%	0%
C=CCN(c1ccccc1)S(=O)(=O)c1ccc(Cl)c(C(=O)OCC(=O)NCCCN2CCCC2=O)c1	nt	nt	-10%	3%	-6%	-1%	-9%	7%
COc1cccc(N2CCN(C(=O)c3cc4cc(Cl)ccc4[nH]3)CC2)c1	nt	nt	-5%	nt	-4%	-5%	17%	nt
CCOC(=O)N1CCN(C(=O)CCc2ccc(S(=O)(=O)NCCc3ccccc3)cc2)CC1	?	4.0%	33%[activator]	1%&-19%	3%	-54%	-3%	-2%
CCN1CCN(Cc2ccc(NC(=O)c3cc(NC(=O)c4nccnc4N)cc(OC)c3)cc2C(F)(F)F)CC1	nt	nt	-10%	nt	-4%	-34%	-11%	nt
COc1ccc(CCNC(=O)c2cnc(C)cn2)cc1	nt	nt	4%	nt	12%	4%	0%	nt
Cc1nn(CCCC(=O)Nc2cccc(C(F)(F)F)c2)c(=O)c2nn(-c3ccccc3)c(C)c12	2%	0.7%	-24%	nt	nt	nt	nt	22%[46.1 µM]
Cc1ccc(C(=O)N/C(=C/c2ccco2)C(=O)NCCc2c[nH]c3ccccc23)cc1	1%	-3.9%	1%	?	12%	-2%	10%	3%
COc1ccc2c(c1)O[C@H](c1ccc3c(c1)OCO3)[C@@H](OC(=O)Nc1cc(OC)c(OC)c(OC)c1)C2=O	-22%&5%	-3.0%&-3.1%	nt	?	3%	?	nt	-17%
COC(CNC(=O)c1ccc(CS(=O)(=O)c2ccc(Br)cc2)o1)OC	nt	nt	16%	-7%[46.1 µM]	1%	-1%	2%	0%[46.1 µM]
O=c1c2ccccc2[nH]c(=S)n1C1CCCCC1	-1%	-0.6%	-24%	?	16%	4%	32%	-11%
O=C(/C=C/c1cccc(Br)c1)NCc1ccncc1	nt	nt	7%	13%[46.1 µM]	5%	nt	-6%	-9%

Screening data deposited in PubChem by National Center for Advancing Translational Sciences (NCATS).
